# High-throughput results deposited in PubChem by National Center for Advancing Translational Sciences (NCATS).
# Menin-MLL FL inh: menin-MLL binding inhibition, fluorescein peptide. Fluorescence polarization, fluorescein-MLL peptide displacement from menin. FP activity change, % at 61.4 µM. 290,000 tested, under 10 active. AID 1766; inconclusive = falling polarisation curve, or a change in total fluorescence; inactive = total fluorescence flat and polarisation flat or rising; no compound was filed as active; the % refers to the polarisation; negative = inhibition;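 note: % of control where 0% means no effect; inhibitors lower the polarisation; unlabelled MLL peptide was the positive control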
# TRPML1 ag: agonists of human TRPML1 channel; 0.12% of 410,000 active; TRPML1-expressing cells, Ca2+ dye fluorescence, FDSS; host cell line not named in the record; reference of the full effect not given here; activation, % (no concentration beside the values); AID 624414; in the data active = activation above about 50%; inconclusive = about 30% to 50%; inactive = below about 30%; note: 0% is about no effect; the text of the record puts the active cut at 80%
# Target sequence (Q9GZU1 whole entry, looked up): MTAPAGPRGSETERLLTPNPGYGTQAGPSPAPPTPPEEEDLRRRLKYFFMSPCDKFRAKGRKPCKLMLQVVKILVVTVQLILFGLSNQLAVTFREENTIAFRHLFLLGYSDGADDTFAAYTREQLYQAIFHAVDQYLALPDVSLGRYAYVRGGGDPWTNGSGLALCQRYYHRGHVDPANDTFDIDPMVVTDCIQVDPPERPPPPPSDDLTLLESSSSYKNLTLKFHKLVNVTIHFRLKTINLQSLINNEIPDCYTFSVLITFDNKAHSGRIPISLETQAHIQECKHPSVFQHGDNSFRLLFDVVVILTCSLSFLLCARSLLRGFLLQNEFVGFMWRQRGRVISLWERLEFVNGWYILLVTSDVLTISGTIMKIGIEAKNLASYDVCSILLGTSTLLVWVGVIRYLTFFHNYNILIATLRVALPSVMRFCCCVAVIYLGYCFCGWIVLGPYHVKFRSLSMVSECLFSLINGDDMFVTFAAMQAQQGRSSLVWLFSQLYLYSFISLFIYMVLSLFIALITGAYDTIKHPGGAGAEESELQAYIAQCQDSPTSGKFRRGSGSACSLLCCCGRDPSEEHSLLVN
#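 Kinetic FDSS Ca2+ read in Tet-induced TRPML1-DL cells (ABD Ca8 dye plus quencher, 45-90 min RT loading): baseline, then compound, then 110 s agonist window; EC80 agonist 54-4 at 4uM final added afterwards for a 110 s antagonist window.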
# TRPML1 inh: human mucolipin-1 channel inhibition; AID 624415; activity change, negative = inhibition, % (concentration not given with the values); 0.02% of 390,000 active; TRPML1-inducible cells, Ca2+ dye fluorescence, FDSS; active compounds read low; inhibition of EC80 agonist-evoked calcium signal; in the data active means activity change below about -50%; inconclusive means about -30% to -50%; inactive means above about -30%;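 note: stimulus is agonist 54-4 at its EC80 concentration; % is set by controls: 0 for no effect and ±100 for the full control effect; the text of the record puts the active cut at -80%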
#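 Tet-induced TRPML1-DL cells loaded with Ca8 no-wash calcium dye were read kinetically on FDSS. Compound addition was followed by EC80 agonist 54-4 (4 uM final); inhibition was read over 110 s.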
# ClpP mod: qHTS Assay for Activators of ClpP; 1.9% of 340,000 active; Potency, µM (doses to about 57.5 µM), for inactives: at the highest dose activity change, negative = active; purified B. subtilis ClpP, FRET peptide cleavage, 20 min; active = well fitted falling curve with a large enough effect; inconclusive = small, poorly fitted or top-dose-only effect; inactive = no such curve, though single readings can be large or run the other way; note: potency is the fitted concentration of half-maximal effect; the source files actives as falling curves though it sought activators and does not explain the sign; nearly all actives have a fitted effect of over 65% in size; many hits overshoot -100%
# Target sequence (P80244 whole entry, looked up): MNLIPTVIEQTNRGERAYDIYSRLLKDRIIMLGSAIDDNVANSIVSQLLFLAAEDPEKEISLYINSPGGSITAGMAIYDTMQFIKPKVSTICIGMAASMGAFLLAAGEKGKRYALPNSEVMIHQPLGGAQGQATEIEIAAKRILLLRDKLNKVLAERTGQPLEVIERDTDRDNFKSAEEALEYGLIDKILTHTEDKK
#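 Buffer: 100 mM Tris/HCl pH8, 100 mM KCl, 0.05% low protease BSA, 2.5% glycerol, 0.01% Tween-20. ClpP 10 microg/mL final; 20 min RT; delta FRET normalized to ADEP and DMSO controls.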
# gsp agonist: gsp mutant agonism; 0.13% of 340,000 active; Potency, µM (top dose mostly 76.9 µM), inactives show at the top dose activation (cAMP increase), usual class: activators; gsp mutant cells, cAMP HTRF, 30 min; control for the full effect not named in the record; active = well fitted activation curve with a large enough effect; inconclusive = small, poorly fitted or top-dose-only effect, or another doubt; inactive = no such curve, though single readings can be large or run the other way; cell line not stated here;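 note: phosphodiesterase inhibitor Ro 20-1724 added with compounds to block cAMP breakdown; potency is the fitted concentration of half-maximal effect; nearly all actives have a fitted effect of over 60% in size; about a fifth of the inactives were tested at one dose only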
#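 Cells in DMEM/10% FBS with G418 were pretreated with compounds in DMSO plus […] (300 uM stock) for 30 min at 37C. cAMP was measured by HTRF (cAMP-d2 plus anti-cAMP antibody-K) after 30 min at room temperature.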
# gsp antag: gsp mutant antagonism; gsp-mutant cells, cAMP HTRF, 30 min; control for the full effect not named in the record; Potency, µM (doses to about 76.9 µM), for the others: top-dose activity change, negative = inhibition, usual class: inhibitors; 0.4% of 340,000 active; active = falling curve of any shape with a large fitted effect; inconclusive = falling curve, mostly with a smaller effect; inactive = flat or rising curve; cell line not stated here;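 note: intracellular cAMP measured with PDE inhibitor Ro 20-1724 present during compound exposure; potency is the fitted concentration of half-maximal effect; % is set by controls: 0 for no effect and ±100 for the full control effect; nearly all actives have a fitted effect of over 65% in size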
#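 HTRF cAMP measurement after 30 min RT detection following 30 min, 37C compound treatment alongside […] (added as 300 uM solution) in G418-selected cells seeded at 2000/well and grown 16–24 h.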
# Numbers without * were called inactive; ? = inconclusive; / = not tested or not shown; [ ] = another dose, or the depositor's remark.
mol	Menin-MLL FL inh	TRPML1 ag	TRPML1 inh	ClpP mod	gsp agonist	gsp antag
Cc1cccc(Oc2ccc(S(=O)(=O)N3CCCCC3)cc2N)c1	-3.0	1.4	19	-2.9%	-27%	2%
CCCn1c(C)cc(C(=O)COC(=O)CN=C2NS(=O)(=O)c3ccccc32)c1C	-0.7	0.7	-6	1.2%	-8%	-13%
CCOC(=O)C1CN(C(=O)OCC)CC1=NNC(N)=O (configuration not stated)	/	-0.2	15	1.6%	?	/
Cc1c(Cl)cccc1NC(=O)c1ccc2snnc2c1	/	0.7	-11	-1.3%	/	/
CCO/N=C(\C)c1c(O)c(CC)c(-c2ccccc2)n(-c2ccccc2)c1=O	-3.5	-0.5	2	-2.9%	13%	-25%
Cc1ccc(NC(=O)c2ccccc2CCc2ccccc2)c(C)c1	2.5	4.3	15	-1.1%	-6%	-3%
COc1ccc(-c2nnc(SCC(=O)Nc3ccc(C(=O)O)cc3)n2-c2ccc(Cl)cc2)cc1	1.4	0.1	7	/	-4%	-10%
Cc1ccc(NC(=O)Nc2cnc3ccccc3c2)cc1	-0.1	0.0	-6	/	-1%	-13%
O=C(NCc1cccnc1)c1ccccn1	3.3	-0.4	-13	-4.3%	13%	17%
Cc1ccc(N2C(=O)CC(c3ccsc3)C3=C2CC(C)(C)CC3=O)cc1 (configuration not stated)	2.9	1.5	9	0.6%	-56%[inhibitor]	9%
O=C(C[n+]1cc(-c2ccc(F)cc2)n2c1CCC2)OCc1ccccc1	0.2	0.1	34	0.6%	0%	1%
COc1cc(C)ccc1OCCCOc1cc(C)ccc1Cl	/	0.8	-10	-3.0%	-7%	-5%
O=C(COc1ccccc1/C=C1\SC(=S)NC1=O)Nc1ccc(F)cc1	/	-0.5	-10	/	-19%	?
CCCN(CCC)C(=O)c1ccc2c(c1)N(CC)C(=O)c1ccccc1S2(=O)=O	-3.8	-0.9	-1	/	1%[15.4 µM]	-7%
Cc1ccc(CNC(=O)COC(=O)CSc2ccc(Br)cc2C)cc1	7.2	2.7	-16	3.5%	-2%	-1%
CCn1c(SCC(=O)N/N=C/c2c[nH]c3ccccc23)nnc1-c1ccc(Cl)cc1	5.8	3.5	-3	1.6%	-16%	-8%
CN1C(=O)Cc2cc(S(=O)(=O)NCc3ccc(Cl)cc3)ccc21	/	-0.1	0	1.6%	/	/
CCCCn1c(N)c(N(CCOC)C(=O)c2cc(S(=O)(=O)N3CCCCC3)ccc2Cl)c(=O)[nH]c1=O	/	-0.1	-19	1.5%	-12%	7%
CCOc1ccc(CC(=O)N/N=C/c2sccc2C)cc1	-0.3	-0.2	-2	1.5%	-24%	-11%
COC(=O)c1ccc2nc(-c3ccc(F)cc3)c(Cc3ccsc3)n2c1	/	0.0	?	-8.9%	/	/
CCCCC(CC)COP(=O)(OCC(CC)CCCC)OCC(CC)CCCC (configuration not stated)	/	-0.4	1	-0.7%	/	1%
O=C1SCCN1N=Cc1ccc([N+](=O)[O-])o1	/	0.2	-1	/	-28%	2%
COc1ccc(C(F)(F)F)cc1N/C=C\c1nnnn1-c1ccc(C)cc1	-0.8	-0.7	7	-23%	-40%[inhibitor]	-7%
COc1ccc(O)c(CN2CCCC(N3CCN(c4ccc(F)cc4)CC3)C2)c1 (configuration not stated)	-0.3	0.7	-10	-3.9%	-20%	-3%
O=S(=O)(c1ccc(Br)cc1)N1CCCN(Cc2ccccc2F)CC1	0.3	2.0	17	0.9%	-11%	-11%
COc1ccc(S(=O)(=O)N2CCOCC2)cc1NC(=O)CN1C(=O)NC2(CCC(C)CC2)C1=O (configuration not stated)	/	0.1	-2	-3.3%	2%	/
CCNS(=O)(=O)c1ccc(C)c(-n2cnnn2)c1C	-2.3	0.4	6	0.4%	7%	0%
O=C(CNC(=S)N(Cc1ccccc1)Cc1ccccc1F)NCc1ccc(Cl)cc1	-5.1	1.1	3	/	-23%[15.4 µM]	?
Clc1ccccc1-c1csc(Nc2cccnc2)n1	-0.5	-0.1	-20	/	1%	9%
Cc1ccc(CNC(=O)c2cc(S(=O)(=O)N3CCCCC3)ccc2N2CCOCC2)cc1	/	1.4	37	-1.2%	13%	-7%
Cc1ccc(NC2=NC3(CCCCC3)N=C(N)N2)c(C)c1	4.0	0.8	20	-2.5%	-1%	8%
CC(C)CCN1CC(C(=O)NCc2ccccc2)CC1=O (configuration not stated)	-0.6	0.7	-8	-1.6%	2%	1%
Cc1ccccc1Nc1nc(N)nc(COC(=O)[C@@H](NC(=O)c2c(F)cccc2F)C(C)C)n1	/	0.0	-13	-2.0%	-2%[15.4 µM]	3%
O=C(COC(=O)Cn1cnc2ccccc21)Nc1cccc([N+](=O)[O-])c1	-0.4	0.8	-7	/	34%	-4%
CCCCCCSc1nsc(NC(=O)CCC)n1	1.4	2.0	6	/	-13%[15.4 µM]	/
CCOc1ccc(CC(=O)N2CCN(c3ccc(N4CCOCC4)nn3)CC2)cc1OCC	3.0	0.8	48	5.3%	?	-4%
CCCCNC(=O)Cn1c(=O)c2c(ncn2CC)n(Cc2ccccc2)c1=O	-6.3	1.0	12	-0.3%	-11%	5%
Cc1ncoc1C(=O)N1CCc2c([nH]c3ccccc23)C1c1ccccc1F (configuration not stated)	2.8	-0.9	3	/	-2%[15.4 µM]	0%
O=C(c1scc2c1CCCC2)N1CCOCC1	1.5	-0.8	0	-1.1%	?	6%
Fc1ccccc1Cn1nnc2c(NCCc3ccccn3)ncnc21	9.3	-0.4	-13	-0.1%	-19%	1%
Cc1ccc(C(=O)CNc2nc3c(c(=O)[nH]c(=O)n3C)n2Cc2ccccc2)cc1	6.4	0.5	28	-4.9%	-3%	3%[15.4 µM]
Cc1nc(-c2nnc(SCC(=O)Nc3ccc(C(F)(F)F)cc3)n2C)cs1	0.3	-0.3	11	-1.4%	9%[15.4 µM]	-17%
Cc1oc(-c2cc(F)ccc2F)nc1CN1CCC(C(=O)N2CCOCC2)CC1	/	-0.2	-6	-1.6%	-34%	2%
CC(C)Cc1ccc(C(C)C(=O)Nc2ccccc2O)cc1 (configuration not stated)	-1.1	?	-4	/	0%[15.4 µM]	-10%
CCC(NC(=O)NCCCn1ccnc1)(C(F)(F)F)C(F)(F)F	-2.5	-0.4	-10	-2.8%	15%	7%
C=CCOc1c(Br)cc(C2NC(=O)NC(C)=C2C(C)=O)cc1OCC (configuration not stated)	4.6	0.6	-4	0.8%	-29%	2%
COC(=O)c1cc2c(cc1N)OCCO2	-3.3	-0.5	-4	-2.2%	17%[15.4 µM]	5%
S=c1[nH]nc(Cc2ccc(Cl)cc2)n1-c1ccc2c(c1)OCCO2	3.8	1.3	6	0.2%	-114%[inhibitor]	-8%
CC(C)(C)OC(=O)N1CCN(C(=O)OCC2c3ccccc3-c3ccccc32)CC1C(=O)O (configuration not stated)	/	0.6	-2	-7.6%	/	-1%
O=C(NCc1ccco1)c1scc2c1OCCO2	1.0	-0.5	-2	-1.8%	-3%	8%

# The list continues.
mol	Menin-MLL FL inh	TRPML1 ag	TRPML1 inh	ClpP mod	gsp agonist	gsp antag
Cn1c(O)c(N=NC(=O)CNC(=O)c2ccccc2)c2ccccc21	/	0.4	-4	/	7%[15.4 µM]	-1%
CCOC(=O)C1CCCN(CC(O)COCc2ccccc2OC)C1 (configuration not stated)	0.4	-0.4	33	/	29%	4%
CCOC(=O)c1nnc(-c2ccc(C)cc2)nc1Sc1ccccc1Cl	1.9	0.4	5	-0.7%	1%	-18%
COc1ccccc1C(=O)Nc1ncc2c(n1)CC(c1ccco1)CC2=O (configuration not stated)	1.0	-0.5	-1	-0.2%	5%	-9%
O=C(/C=N/NC(=O)c1ccccc1Br)c1ccccc1	-1.8	-0.2	-7	/	20%	-1%
O=C(O)COCC(=O)NCc1nc(-c2ccc(C(F)(F)F)cc2)no1	-1.0	1.1	-26	/	10%[15.4 µM]	5%
CCN(CC)CCNC(=O)Cn1nc(Cc2ccccc2)c2ccccc2c1=O	1.2	-0.6	0	-2.2%	-23%	15%
CCN(CC)c1ccc(S(=O)(=O)N2CCOCC2)cc1NC(=O)CSc1nnc(N)s1	/	0.2	-10	-7.8%	47%	-1%
COc1ccc(S(=O)(=O)NC(=O)C2(C)CCN2C(=O)c2cccc(F)c2)cc1 (configuration not stated)	/	0.1	-17	-1.7%	/	/
Cc1[nH]nc(-c2ccc(O)cc2O)c1-c1ccc(Cl)cc1	-0.3	1.7	9	3.6%	-4%	?
COC(=O)Nc1ccc(S(=O)(=O)N2CCCC(C(=O)NC3CCS(=O)(=O)C3)C2)cc1 (configuration not stated)	5.0	-0.6	4	-0.4%	3%[15.4 µM]	5%
C/C(=N/NC(=O)c1nnn(-c2nonc2N)c1COc1ccccc1)c1ccccc1	7.6	0.0	26	-6.2%	1%	1%
COc1ccc(CCNC(=O)CSc2nnc3ccc(-c4cccnc4)nn23)cc1	-0.2	/	/	-2.0%	?	4%
O=C(O)c1ccc[nH]c1=S	0.2	0.7	2	/	20%[15.4 µM]	7%
COCCNC(=O)CCc1c(C)n(C)c2cc(-c3cc(OC)c(OC)c(OC)c3)nn2c1=O	/	-0.7	17	-2.9%	/	/
CSc1nc2ccc(NC(=O)C3=NN(c4ccccc4)C(=O)CC3)cc2s1	2.1	1.4	-17	0.2%	0%[15.4 µM]	-16%
CCCn1c(=O)n(C)c(=O)c2c(SCC(=O)NC34CC5CC(CC(C5)C3)C4)nc(CC(C)C)nc21	-1.4	6.5	6	1.4%	25%	8%
CN(C)C/C(Cl)=C(\Cl)c1ccccc1	2.9	-0.9	15	0.5%	1%	-4%
CSCCNCc1cn(-c2ccc(F)cc2F)nc1-c1ccccc1C	?	-0.1	0	-1.8%	12%[15.4 µM]	-19%
CC(C)n1nc(C(=O)Nc2ccc3c(c2)OCO3)c2ccccc2c1=O	/	0.5	4	1.5%	-2%	-3%
Cc1cc(O)c(C(C)C)cc1NC1=NS(=O)(=O)c2ccccc21	3.0	1.1	27	0.6%	-4%	-5%
Cc1ccc(C)c(OCCC(=O)NCCc2ccc(Cl)cc2)c1	/	1.8	7	-2.0%	-18%	-16%
